CSC inhib: cancer stem cell inhibition. cancer stem cell-like cells viability, luminescence. inhibition, % at 7.5 µM. hit rate 1.1% among 300,000;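 active means mean at 75% or more and at least half the replicates too; tested in HMLE shEcad cells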;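 further: 0% = median of negative and 100% = median of positive control wells; the first replicate is given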
eIF4H inh: inhibitors of RNA binding by human eIF4H. Q15056. eIF4H fluorescence polarization binding assay. inhibition, % at 35 µM. hit rate 0.94% among 290,000;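 active means 50% or more with normal probe brightness, or confirmed in later tests; about a fifth of its hits are not listed in these tables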;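 further: calls also rest on retests at 20 µM and on dose response follow-up; 0% = protein and probe with vehicle and 100% = probe without protein; strong numbers were not always called active; many hits fall short of the cut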
PABP FP inh: blocks human PABP binding to poly(A) RNA. P11940. fluorescence polarization. inhibition, % at 35 µM. hit rate 1% among 290,000. AID 2014;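 active means 50% or more with normal probe brightness, or confirmed in later tests; about a fifth of its hits are not listed in these tables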;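 further: calls also rest on retests at 20 µM and on dose response follow-up; controls were probe without protein and protein plus probe with vehicle; some compounds called inactive have numbers as strong as hits; many hits fall short of the cut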
MT1-MMP act inh: MT1-MMP (human) activation inhibition | hit rate 0.061% among 360,000 | AID 651647 | GFP/RFP ratio change, % at 20 µM | P50281 | HT1080 RFP-PRO-GFP cells, GFP/RFP ratio fluorescence, overnight; percent of plate control window, DMSO zero;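 active means GFP/RFP ratio change of at least 30% with cell ATP level not reduced by more than half and red fluorescence within 50% of control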; further: strong numbers were not always called active
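Assay system: HT1080 RFP-PRO-GFP cells. Benchmarks: DMSO vehicle wells and RFP-L50D-GFP reporter cell wells. Times: overnight cell settling, then overnight compound exposure, 37 °C, 5% CO2. Compound: 20 µM single dose, 1% DMSO. Read-out basis: GFP/RFP fluorescence ratio.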
HIV Env fusion: inhibitors of HIV Env-mediated cell fusion; HeLa-JRFL Env/CEM21 cell fusion, luciferase; hit rate 1.1% among 360,000; AID 651610; inhibition, % at 12.3 µM;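 active means mean replicate inhibition score of at least 50 and every replicate individually at or above 50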;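 further: 0% = plate neutral controls and 100% = maraviroc near 300 nM; one replicate is shown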
Rce1 inhib: blocks yeast Ras-converting enzyme | AID 2563 | calls only | yeast membranes, quenched prenylated peptide cleavage fluorescence | hit rate 0.27% among 290,000;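 active means fall in fluorescence gain of 50% or more versus controls, with final raw signal at or below 3038400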;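 further: plate controls were neutral control wells for no effect and wells lacking membranes for full effect; tested at 10 µM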
Target sequence (Q03530 whole entry, looked up): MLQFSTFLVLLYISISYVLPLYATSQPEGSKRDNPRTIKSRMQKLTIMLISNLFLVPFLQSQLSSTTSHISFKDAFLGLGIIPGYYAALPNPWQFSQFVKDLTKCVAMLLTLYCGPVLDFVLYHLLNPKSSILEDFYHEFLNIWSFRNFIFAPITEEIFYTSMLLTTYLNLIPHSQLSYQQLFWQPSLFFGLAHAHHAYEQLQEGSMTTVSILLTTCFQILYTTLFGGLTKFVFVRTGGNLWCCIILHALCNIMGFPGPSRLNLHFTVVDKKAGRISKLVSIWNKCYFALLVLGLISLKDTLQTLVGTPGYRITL
UUG fidelity: modulators of start codon recognition fidelity in yeast | activity score, % at 18.7 µM | hit rate 0.13% among 350,000 | S. cerevisiae UUG-firefly luciferase reporter, luminescence/redox ratio | AID 602363;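 active means replicate mean at a twofold rise or more, about +100% in these data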;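 further: firefly luciferase made from a UUG start codon reports start codon fidelity; reporter light over untreated wells divided by growth signal over untreated wells; some hits fall short of that in this replicate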
eIF4H inh retest: second read-out of eIF4H inh, no call of its own (marks repeat the call); inhibition, %; compound at 20 µM; confirmation average;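 mean of two retest wells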
PABP FP inh retest: further read-out of PABP FP inh, marked with its call; inhibition, %; compound at 20 µM; confirmation repeats;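 mean of two retest wells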
MT1-MMP act inh RFP: recorded beside MT1-MMP act inh, whose call it bears; RFP signal change, %; measured here: RFP expression control read;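 0 = vehicle wells; hits needed this value within 50% of zero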
Starred values were filed as active, the others as inactive.

Screening Cc1c(Cl)cccc1NC(=O)NCCCN1CCCC1=O returned CSC inhib -7, eIF4H inh -1, PABP FP inh 6, MT1-MMP act inh -4, HIV Env fusion -1, Rce1 inhib inactive, UUG fidelity -25 and MT1-MMP act inh RFP 2.
`CCOC(=O)COc1c(/C=N\O)cc(Cl)cc1OC` gave CSC inhib -9, eIF4H inh -3, PABP FP inh 9, MT1-MMP act inh 0, HIV Env fusion 1, Rce1 inhib inactive and MT1-MMP act inh RFP 0.
For Cc1c(C(=O)NCc2cccc(C(F)(F)F)c2)sc(=O)n1Cc1ccccc1F the results were MT1-MMP act inh -3, HIV Env fusion -48, UUG fidelity -12 and MT1-MMP act inh RFP 1.
For CCN(C(=O)COC(=O)CN1C(=O)c2ccccc2C1=O)c1ccccc1 the results were CSC inhib -3, MT1-MMP act inh 2, HIV Env fusion -14, UUG fidelity -13 and MT1-MMP act inh RFP 2.
For Cc1nnc(SCC(=O)NNC(=O)C(C)C)[nH]c1=O the results were CSC inhib -5, eIF4H inh -4, PABP FP inh -8, MT1-MMP act inh 0, HIV Env fusion 6, Rce1 inhib inactive, UUG fidelity -11 and MT1-MMP act inh RFP 1.
O=C(Nc1ccc(N2CCN(C(=O)c3ccccc3)CC2)c(Cl)c1)c1ccc(Br)o1 was read as CSC inhib -9, eIF4H inh -2, PABP FP inh 2, MT1-MMP act inh 3, Rce1 inhib inactive and MT1-MMP act inh RFP -11.
`CC1CC2(CCCC2)N(C(=O)c2ccccc2)Cc2ccccc21` (stereo not given) gave eIF4H inh -8, PABP FP inh -3, MT1-MMP act inh -7, HIV Env fusion 33, Rce1 inhib inactive, UUG fidelity 2 and MT1-MMP act inh RFP -4.
For CCC(=O)Nc1ccc2c(c1)nc(CCN1CCCCC1)n2C the results were CSC inhib -15, eIF4H inh -7, PABP FP inh 2, MT1-MMP act inh 1, HIV Env fusion 1, Rce1 inhib inactive, UUG fidelity -6 and MT1-MMP act inh RFP 2.
CC(c1ccco1)N(C(=O)C12CC3(C)CC(C)(CC(C)(C3)C1)C2)c1ccccn1 (stereo not given) was read as CSC inhib 18, eIF4H inh -3, PABP FP inh 6, MT1-MMP act inh -9, HIV Env fusion 76*, UUG fidelity -2 and MT1-MMP act inh RFP -6.
Screening COc1ccc(NC(=S)/N=C(\N)Nc2nc(C)c3ccccc3n2)cc1 returned CSC inhib 17, eIF4H inh -4, PABP FP inh 5, MT1-MMP act inh 2, HIV Env fusion 21, Rce1 inhib inactive and MT1-MMP act inh RFP -2.
COCCn1c(SCC(=O)NNC(=O)Cc2ccccc2)nc2ccccc2c1=O was read as CSC inhib 11, eIF4H inh 2, PABP FP inh -2, MT1-MMP act inh -1, HIV Env fusion -5, Rce1 inhib inactive and MT1-MMP act inh RFP -1.
Screening C=CCOc1ccc(Br)cc1CNCCO returned CSC inhib 11, eIF4H inh -14, PABP FP inh -1, MT1-MMP act inh 4, HIV Env fusion -12, Rce1 inhib inactive and MT1-MMP act inh RFP 6.
For CCOc1ccc(CCNC(=O)CSc2cc(=O)n(C)c3ccc(Cl)cc23)cc1OCC the results were CSC inhib -10, eIF4H inh -3, PABP FP inh 10, MT1-MMP act inh 3, Rce1 inhib inactive, UUG fidelity -5 and MT1-MMP act inh RFP 1.
O=C(NCc1ccccn1)c1ccc(Cl)c(S(=O)(=O)NCc2ccccc2)c1 was read as MT1-MMP act inh 0, HIV Env fusion -2, UUG fidelity -16 and MT1-MMP act inh RFP 1.
CCOC(=O)c1ccc(NS(=O)(=O)c2ccc3oc(=O)[nH]c3c2)cc1 was read as CSC inhib -7, eIF4H inh -2, PABP FP inh 21, MT1-MMP act inh 1, HIV Env fusion 16, Rce1 inhib inactive, UUG fidelity 2 and MT1-MMP act inh RFP -3.
Screening Cc1[nH]n(-c2ccc([N+](=O)[O-])cc2)c(=O)c1C=NCCN1CCN(C(=O)c2cccc(F)c2)CC1 returned CSC inhib 47, eIF4H inh -2, PABP FP inh 4, MT1-MMP act inh 4, HIV Env fusion -9, Rce1 inhib inactive, UUG fidelity -8 and MT1-MMP act inh RFP 2.
`CCc1ccc2nc(-c3cccc(C)c3)nc(SCC(=O)NCC3CCCO3)c2c1` (stereo not given) gave CSC inhib -18, eIF4H inh 0, PABP FP inh -8, MT1-MMP act inh 2, HIV Env fusion -34, Rce1 inhib inactive, UUG fidelity -17 and MT1-MMP act inh RFP 0.
`c1ccc(CCNc2ccc3ncc(-c4cccc5ccccc45)n3n2)nc1` gave MT1-MMP act inh -8, HIV Env fusion 35, UUG fidelity -11 and MT1-MMP act inh RFP -11.
For C#CCOCCOCCOCCNc1nc(N2CCN(C(=O)Cn3cc(CC(C)O)nn3)CC2)nc(N2CCN(C(=O)[C@H](CCCCN)n3cc(CCC(=O)O)nn3)CC2)n1 (stereo not given in full) the results were CSC inhib -25, eIF4H inh 2, PABP FP inh 19, MT1-MMP act inh -3, HIV Env fusion -10, Rce1 inhib inactive, UUG fidelity 44 and MT1-MMP act inh RFP 1.
O=C(NCc1cn2ccsc2n1)c1cccc(C(F)(F)F)c1 was read as CSC inhib -2, eIF4H inh -5, PABP FP inh -7, MT1-MMP act inh 0, Rce1 inhib inactive, UUG fidelity -25 and MT1-MMP act inh RFP -1.
CCS(=O)(=O)Nc1c(C)n(C)n(-c2ccccc2)c1=O was read as CSC inhib -3, eIF4H inh -3, PABP FP inh 0, MT1-MMP act inh 2, HIV Env fusion -17, Rce1 inhib inactive, UUG fidelity -22 and MT1-MMP act inh RFP 5.
For CCOC(=O)c1[nH]c(C)c(C(=O)NC2CCCCCC2)c1C the results were CSC inhib -11, eIF4H inh -7, PABP FP inh -6, MT1-MMP act inh 7, Rce1 inhib inactive, UUG fidelity -9 and MT1-MMP act inh RFP 6.
`Cc1ccc(N(CC(=O)Nc2ccc(S(=O)(=O)N3CCOCC3)cc2)S(C)(=O)=O)cc1C` gave CSC inhib -14, eIF4H inh -10, PABP FP inh 1, MT1-MMP act inh -3, HIV Env fusion -112, Rce1 inhib inactive, UUG fidelity 17 and MT1-MMP act inh RFP 0.
COc1cccc(CN(C)CC(=O)Nc2cccc(C(F)(F)F)c2)c1OC was read as CSC inhib -12, eIF4H inh -10, PABP FP inh 2, MT1-MMP act inh 1, HIV Env fusion 37, Rce1 inhib inactive, UUG fidelity 6 and MT1-MMP act inh RFP -11.
`CCOC(=O)CSc1nnc(CSc2nc3ccccc3c(=O)[nH]2)n1-c1ccccc1` gave CSC inhib -1, eIF4H inh 2, PABP FP inh -9, MT1-MMP act inh -2, Rce1 inhib inactive, UUG fidelity -11 and MT1-MMP act inh RFP 1.
`COc1ccc(C(=O)N2CCCC(c3cc(C(=O)Nc4ccccc4)no3)C2)cc1` (stereo not given) gave MT1-MMP act inh -4, HIV Env fusion 2, UUG fidelity -3 and MT1-MMP act inh RFP 1.
Cc1noc(C)c1C(=O)NCC1COc2ccccc2O1 (stereo not given) was read as MT1-MMP act inh 4, HIV Env fusion -5, UUG fidelity -25 and MT1-MMP act inh RFP 3.
CN(Cc1nccn1C)C(=O)CC1C(=O)NCCN1Cc1ccccc1C(F)(F)F (stereo not given) was read as CSC inhib -12, eIF4H inh 5, PABP FP inh 10, MT1-MMP act inh 2, HIV Env fusion 9, Rce1 inhib inactive, UUG fidelity 4 and MT1-MMP act inh RFP 3.
Screening COc1cc(C=O)ccc1OCC(=O)Nc1ccccc1N1CCOCC1 returned CSC inhib -12, eIF4H inh -6, PABP FP inh 6, MT1-MMP act inh -1, HIV Env fusion 10, Rce1 inhib inactive, UUG fidelity -4 and MT1-MMP act inh RFP 2.
Cc1ccc(CNC(=O)Cn2nnc(C(=O)Nc3cccc(C)c3C)c2N)cc1 was read as CSC inhib -10, MT1-MMP act inh -2, HIV Env fusion 3, Rce1 inhib inactive, UUG fidelity -1 and MT1-MMP act inh RFP 2.
Fc1ccc(-c2cc3nc(-c4ccccc4)cc(N4CCOCC4)n3n2)cc1 was read as CSC inhib 5, eIF4H inh -2, PABP FP inh -11, MT1-MMP act inh 7, UUG fidelity -22 and MT1-MMP act inh RFP -3.
`Cc1cc(C)cc(NC(=O)CCc2nc3ccccc3[nH]2)c1` gave eIF4H inh 0, PABP FP inh -1, MT1-MMP act inh -1, HIV Env fusion -86, Rce1 inhib inactive, UUG fidelity -25 and MT1-MMP act inh RFP -4.
CCCCC#Cc1ccc(C(=O)NNC(=O)Nc2ccccc2)o1 was read as CSC inhib 16, eIF4H inh 3, PABP FP inh -13, MT1-MMP act inh 0, HIV Env fusion 9, Rce1 inhib inactive and MT1-MMP act inh RFP -5.
CCNc1nc(NCC)nc(N/N=C/c2ccc(N(C)C)cc2)n1 was read as CSC inhib -5, eIF4H inh 12, PABP FP inh 6, MT1-MMP act inh 4, HIV Env fusion -2 and MT1-MMP act inh RFP 0.
For N#Cc1ccsc1NC(=O)COC(=O)c1cc(Br)ccc1O the results were CSC inhib -11, eIF4H inh 5, PABP FP inh 8, MT1-MMP act inh -3, HIV Env fusion -7, Rce1 inhib inactive, UUG fidelity 2 and MT1-MMP act inh RFP -1.
COc1ccc(Cl)c(Cn2c(NCCCO)nc3c2c(=O)n(C)c(=O)n3C)c1 was read as CSC inhib -5, eIF4H inh 1, PABP FP inh 0, MT1-MMP act inh 8, Rce1 inhib inactive, UUG fidelity -4 and MT1-MMP act inh RFP 4.
CCS(=O)(=O)Nc1cccc(-c2ccc3nnc(C)n3n2)c1 was read as CSC inhib -21, eIF4H inh -2, PABP FP inh 4, HIV Env fusion -46 and Rce1 inhib inactive.
CCN(C(=O)c1cccc(NC(=O)c2ccccc2)c1)C1CCCCC1 was read as CSC inhib -8, eIF4H inh -7, PABP FP inh -14, MT1-MMP act inh 2, HIV Env fusion 13, Rce1 inhib inactive, UUG fidelity 0 and MT1-MMP act inh RFP -2.
Screening CCc1nnc(NC(=O)c2ccc3ccccc3n2)s1 returned CSC inhib 4, eIF4H inh 20, PABP FP inh 82, MT1-MMP act inh 3, HIV Env fusion -75, Rce1 inhib inactive, UUG fidelity -30, eIF4H inh retest -7, PABP FP inh retest 15 and MT1-MMP act inh RFP 3.
`COc1ccc(CCN2C(=O)C3C4CC(C5C(C(=O)O)=NOC45)C3C2=O)cc1OC` (stereo not given) gave eIF4H inh -5, PABP FP inh -2, MT1-MMP act inh 0, HIV Env fusion 3, Rce1 inhib inactive, UUG fidelity -22 and MT1-MMP act inh RFP -1.
For O=C(COC(=O)c1ccco1)Nc1cc(S(=O)(=O)N2CCCCC2)ccc1Cl the results were CSC inhib -15, MT1-MMP act inh 1, HIV Env fusion -7, UUG fidelity -15 and MT1-MMP act inh RFP 1.
Screening CCCn1c(SCC(=O)Nc2nc(C)cs2)nnc1-c1cccnc1 returned CSC inhib -11, eIF4H inh -7, PABP FP inh 1, MT1-MMP act inh 1, UUG fidelity -10 and MT1-MMP act inh RFP -1.
O=c1cc(CSc2nnnn2-c2ccccc2)nc2nc[nH]n12 was read as CSC inhib -10, eIF4H inh -3, PABP FP inh -4, MT1-MMP act inh -4, HIV Env fusion -81, Rce1 inhib inactive, UUG fidelity -15 and MT1-MMP act inh RFP 0.

Quoted at random: 2 entries already listed.
`COc1ccc(CCN2C(=O)C3C4CC(C5C(C(=O)O)=NOC45)C3C2=O)cc1OC` (stereo not given) gave eIF4H inh -5, PABP FP inh -2, MT1-MMP act inh 0, HIV Env fusion 3, Rce1 inhib inactive, UUG fidelity -22 and MT1-MMP act inh RFP -1.
O=c1cc(CSc2nnnn2-c2ccccc2)nc2nc[nH]n12 was read as CSC inhib -10, eIF4H inh -3, PABP FP inh -4, MT1-MMP act inh -4, HIV Env fusion -81, Rce1 inhib inactive, UUG fidelity -15 and MT1-MMP act inh RFP 0.

High-throughput results: PubChem BioAssay, several laboratories

A portion of the library; the hit share may differ from the screen's.
